Assay outcomes deposited in PubChem BioAssay by several laboratories.
BJeLR viability: BJeLR cell viability loss; BJeLR (HRASV12) viability, CellTiter-Glo ATP luminescence, 48 h; reference of the scale not given here; inhibition, % (test concentration not listed); 300,000 compounds, 0.17% hits; AID 1554;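 active = replicate mean above 50%; inconclusive = above 50% but judged a plate artefact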;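 also: 50 nL library stock added to about 25 µL; numbers are from one replicate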
Autofluor counter: flagged as autofluorescent in microsphere protease counterscreen. compound autofluorescence counterscreen, microsphere flow cytometry; active compounds read high. fluorescence intensity (no concentration beside the values). 360,000 compounds, 3.1% hits. AID 624483;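 active = at least 3 SD above the mean of all compounds, about 16000 in these data; inconclusive = too few beads counted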;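 also: 100 nL of 1 mM stock went into each well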
PrP 5UTR inh: suppresses PrP 5' UTR mRNA reporter expression; cell-based PrP 5' UTR mRNA reporter, plate reader; inhibition, % (test concentration not listed); 340,000 compounds, 0.35% hits;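 active = every replicate at 50% or more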;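 also: 0 = median of the neutral control wells; tested in H4 reporter cells; numbers are from one replicate; inactives centre near -14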
RN4220 kill: S. aureus RN4220 growth inhibition. AID 1259311. 330,000 compounds, 0.33% hits. inhibition, % (test concentration not listed). OD600, 16 h;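 active = z-score of -3 or lower and OD600 up to 0.18 on both plates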;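 also: plate controls were untreated cells for no effect and reference antibiotic for full effect; stock transfer was 100 nL into about 80 µL; one replicate is shown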
Mtb hypoxia inh: Mtb hypoxia fluorescent reporter inhibition; fluorescence inhibition, % (no concentration beside the values); M. tuberculosis hypoxia-regulated fluorescent reporter, fluorescence; 300,000 compounds, 0.1% hits;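 active = 35 to 45% if threefold the growth effect, above 45% if 1.5-fold the growth effect; inactive = the rest, general growth blockers included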;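 also: wells of about 50 µL received 100 nL stock; 0% = vehicle wells and 100% = reference inhibitor wells; whole bacteria with a GFP reporter of the hypoxia response; strong numbers were not always called active; many hits fall short of the cut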
ugtP null kill: kills S. aureus RN4220 lacking UgtP; S. aureus RN4220 ugtP deletion, OD600 growth, 16 h; some inactives read as strong as hits; growth inhibition, % (no concentration beside the values); 330,000 compounds, 0.54% hits;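 active = z-score under -3 and OD600 up to 0.15 on both plates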;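 also: plate controls were untreated wells for no effect and antibiotic for full effect; wells of about 80 µL received 100 nL stock; the first replicate is given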
Mtb hypoxia inh growth: recorded beside Mtb hypoxia inh, whose call it bears; growth inhibition, %; measured here: M. tuberculosis growth (absorbance);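 0% = vehicle and 100% = reference antibiotic; read after six days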
The depositor's hits bear a star. Compounds were not picked by outcome; 3.9% or so of the library scored in one or more.

Screening COc1ccc(CNC(=O)COC(=O)c2sccc2C)cc1OC returned Autofluor counter 4168, PrP 5UTR inh -13.4, RN4220 kill 6.5, Mtb hypoxia inh 12.4, ugtP null kill 3.6 and Mtb hypoxia inh growth 5.3.
Cc1cc(C(=O)COC(=O)c2ccc(Br)o2)c(C)n1Cc1ccco1 was read as BJeLR viability 6.8, RN4220 kill 6.4, Mtb hypoxia inh 17.1, ugtP null kill 6.8 and Mtb hypoxia inh growth 2.0.
`Cc1cccc(-c2nc3cc(NC(=O)C4CCCO4)ccc3o2)c1` (stereo unspecified) gave BJeLR viability 33.8, Autofluor counter 2047, PrP 5UTR inh -27.5, RN4220 kill 2.2, Mtb hypoxia inh 4.3, ugtP null kill -10.0 and Mtb hypoxia inh growth -11.3.
Screening COC(=O)Cn1c(=O)c(=O)n(CC(=O)OC)c2ccccc21 returned BJeLR viability 0.3, Autofluor counter 4184, PrP 5UTR inh 5.0, RN4220 kill 4.2, Mtb hypoxia inh -1.5, ugtP null kill -3.0 and Mtb hypoxia inh growth 0.7.
For O=C(CCNc1n[nH]c(=O)[nH]c1=O)N/N=C/c1ccc(C(F)(F)F)cc1 the results were BJeLR viability -12.6, Autofluor counter 4693 and PrP 5UTR inh -16.8.
For O=S(=O)(c1ccc(Cl)nc1)N1CCc2ccccc21 the results were BJeLR viability 0.6, Autofluor counter 6317, PrP 5UTR inh -8.0, RN4220 kill 3.3, Mtb hypoxia inh 8.4, ugtP null kill 4.4 and Mtb hypoxia inh growth 2.0.
O=C(Nc1ccccc1N1CCCC1)C1CCN(S(=O)(=O)c2ccc(F)cc2)CC1 was read as BJeLR viability -0.1, Autofluor counter 6627 and PrP 5UTR inh 11.9.
`Cc1ccc(N(CC(=O)NCc2ccc(F)cc2)C(=O)c2ccco2)cc1C` gave BJeLR viability -10.6, Autofluor counter 5999, PrP 5UTR inh -11.7, RN4220 kill 2.3, Mtb hypoxia inh -9.5, ugtP null kill 4.8 and Mtb hypoxia inh growth 9.1.
For COC(=O)Nc1ccc(S(=O)(=O)N2c3ccccc3CCC2C)cc1 (stereo unspecified) the results were BJeLR viability 24.1, Autofluor counter 11044, PrP 5UTR inh -39.6, RN4220 kill 3.8, Mtb hypoxia inh -4.0, ugtP null kill -22.3 and Mtb hypoxia inh growth -7.7.
CCCCc1nnc(NC(=O)CSCc2cc(=O)n3cc(C)sc3n2)s1 was read as BJeLR viability -5.5, Autofluor counter 4473, PrP 5UTR inh -10.6, RN4220 kill 1.6, Mtb hypoxia inh 5.4, ugtP null kill 5.3 and Mtb hypoxia inh growth 3.8.
`O=C(CSc1nnc(-c2ccncc2)n1Cc1ccco1)Nc1nc(-c2ccccc2)cs1` gave BJeLR viability 17.5, Autofluor counter 3692, PrP 5UTR inh -11.3, RN4220 kill 0.0 and ugtP null kill 1.6.
O=C(CSc1nnnn1-c1ccccc1)N1CCCc2ccccc21 was read as BJeLR viability -3.1, Autofluor counter 5753, PrP 5UTR inh -22.2, RN4220 kill 0.7 and ugtP null kill 10.5.

Random excerpt: 2 records from the list
`O=C(CSc1nnc(-c2ccncc2)n1Cc1ccco1)Nc1nc(-c2ccccc2)cs1` gave BJeLR viability 17.5, Autofluor counter 3692, PrP 5UTR inh -11.3, RN4220 kill 0.0 and ugtP null kill 1.6.
For COC(=O)Nc1ccc(S(=O)(=O)N2c3ccccc3CCC2C)cc1 (stereo unspecified) the results were BJeLR viability 24.1, Autofluor counter 11044, PrP 5UTR inh -39.6, RN4220 kill 3.8, Mtb hypoxia inh -4.0, ugtP null kill -22.3 and Mtb hypoxia inh growth -7.7.

Further structures.
`COc1ccc(C2=NN(S(=O)(=O)c3ccccc3)C(c3ccccc3)C2)cc1` (stereo unspecified) gave BJeLR viability -0.8, Autofluor counter 3838, PrP 5UTR inh -6.7, RN4220 kill 7.0, Mtb hypoxia inh 6.8, ugtP null kill 19.8 and Mtb hypoxia inh growth 7.8.
Screening COc1ccc(/C(C)=N/NC(=O)c2ccc3nc[nH]c3c2)cc1 returned BJeLR viability -0.3, Autofluor counter 6150 and PrP 5UTR inh -7.0.
Screening O=C(Nc1ccc(Cl)cc1)C1CC(=O)n2c(nc3ccccc32)N1 (stereo unspecified) returned BJeLR viability 1.1, Autofluor counter 4750, PrP 5UTR inh -16.6, RN4220 kill 1.2, Mtb hypoxia inh 5.2, ugtP null kill -3.1 and Mtb hypoxia inh growth -3.3.
`CCOC(=O)c1c(C2COc3ccccc3O2)csc1NC(=O)c1ccco1` (stereo unspecified) gave BJeLR viability 4.1, Autofluor counter 21244*, PrP 5UTR inh -13.9, RN4220 kill -5.2, Mtb hypoxia inh 3.5, ugtP null kill 59.9 and Mtb hypoxia inh growth 9.5.
Screening CC(CCc1ccc2c(c1)OCO2)=N/N=C1/NC(=O)CC(C(=O)Nc2ccccc2F)S1 (stereo unspecified) returned RN4220 kill 8.3, Mtb hypoxia inh -7.8, ugtP null kill -6.6 and Mtb hypoxia inh growth 5.9.
`O=C(CCS(=O)(=O)Cc1ccccc1)N1CCN(c2ccccc2)CC1` gave BJeLR viability 7.8, Autofluor counter 15228, PrP 5UTR inh -4.8, RN4220 kill 2.2, Mtb hypoxia inh 8.9, ugtP null kill -0.4 and Mtb hypoxia inh growth 2.5.
CC(Sc1ccsc1[N+](=O)[O-])C(=O)N1CCN(c2ccccn2)CC1 (stereo unspecified) was read as BJeLR viability -5.3, Autofluor counter 2117, PrP 5UTR inh -9.2, RN4220 kill 1.5, Mtb hypoxia inh 0.7, ugtP null kill 1.5 and Mtb hypoxia inh growth -1.7.
Screening COc1ccc(CCNS(=O)(=O)c2cccc3cccnc23)cc1OC returned BJeLR viability -4.6, Autofluor counter 3305, PrP 5UTR inh -8.8, RN4220 kill -0.7, Mtb hypoxia inh -2.2, ugtP null kill -4.9 and Mtb hypoxia inh growth -0.3.
Cc1ccc(C)c(C(=O)Nc2ccncc2)c1 was read as BJeLR viability -2.9, Autofluor counter 3995, PrP 5UTR inh -14.4, RN4220 kill 2.6, Mtb hypoxia inh 10.3, ugtP null kill 11.5 and Mtb hypoxia inh growth 0.4.
Screening CCOc1ccc(-n2cc(-c3ccccc3)c3c(SC(C)C(=O)OC)ncnc32)cc1 (stereo unspecified) returned BJeLR viability 1.0, Autofluor counter 2132, PrP 5UTR inh -15.1, RN4220 kill -0.2 and ugtP null kill 42.3.
For Cc1cc(C)c(OCC(=O)NCC(c2ccco2)N2CCCCC2)c(C)c1 (stereo unspecified) the results were Autofluor counter 3913, PrP 5UTR inh -1.4, RN4220 kill 4.0, Mtb hypoxia inh 4.9, ugtP null kill 3.3 and Mtb hypoxia inh growth 1.4.
For CCCCN(C)CC(O)Cn1cc(/C=C/C(=O)c2cccs2)c2ccccc21 (stereo unspecified) the results were BJeLR viability -12.3, Autofluor counter 9081 and PrP 5UTR inh -22.4.
For CC(C)COc1ccc(C(=O)N(Cc2ccco2)C2CCS(=O)(=O)C2)cc1 (stereo unspecified) the results were BJeLR viability 7.6, Autofluor counter 3053, PrP 5UTR inh -14.1, RN4220 kill 16.2, Mtb hypoxia inh -12.1, ugtP null kill 5.2 and Mtb hypoxia inh growth 2.8.
`Brc1cccc(-c2nnc3sc(CNC4CCCC4)cn23)c1` gave BJeLR viability 6.3, Autofluor counter 5752, PrP 5UTR inh 4.7, RN4220 kill 6.8, Mtb hypoxia inh 11.7, ugtP null kill 16.4 and Mtb hypoxia inh growth 7.1.
For COc1ccccc1-c1n[nH]c(=S)o1 the results were Autofluor counter 4473, PrP 5UTR inh -13.6, RN4220 kill 4.5, Mtb hypoxia inh 2.2, ugtP null kill 2.3 and Mtb hypoxia inh growth -1.7.
For Cc1ccc(C)c(N(C(=O)c2snc(C(N)=O)c2N)C(C(=O)NCC2CCCO2)c2ccc(C)o2)c1 (stereo unspecified) the results were BJeLR viability -5.2, Autofluor counter 3685, PrP 5UTR inh -10.8, RN4220 kill 5.5, Mtb hypoxia inh 10.7, ugtP null kill -0.8 and Mtb hypoxia inh growth 8.6.
Screening O=S(=O)(c1ccc(SCc2ccc(Cl)cc2)nc1)N1CCCC1 returned Autofluor counter 4076, PrP 5UTR inh -11.1, RN4220 kill -3.4, Mtb hypoxia inh -0.4, ugtP null kill 9.2 and Mtb hypoxia inh growth 11.9.
CCOc1ccc(/C=N/NC(=O)C2(O)c3ccccc3-c3ccccc32)cc1 was read as BJeLR viability 1.8, Autofluor counter 7391 and PrP 5UTR inh -13.4.
`O=C(COC(=O)C1CCC1)NCc1ccccc1` gave BJeLR viability -9.2, Autofluor counter 5398, PrP 5UTR inh -23.7, RN4220 kill 2.1, Mtb hypoxia inh 5.9, ugtP null kill 9.3 and Mtb hypoxia inh growth 5.4.
Cc1cc(-c2nnc3n2N=C(c2ccc(-c4ccccc4)cc2)CS3)n[nH]1 was read as BJeLR viability -0.8, Autofluor counter 4871, PrP 5UTR inh -16.8, RN4220 kill 8.8 and ugtP null kill -5.0.
Screening Cc1ccc(CNC(=O)c2ccc3c(=O)c(O)c(-c4ccc(C)cc4)[nH]c3c2)cc1 returned BJeLR viability -1.5, Autofluor counter 3984, PrP 5UTR inh 36.9, RN4220 kill 3.5, Mtb hypoxia inh 11.6, ugtP null kill -19.5 and Mtb hypoxia inh growth 9.9.
CCCN(CCC)C(=O)c1ccc2nc(-c3ccc(OC)c(OC)c3)c(-c3ccc(OC)c(OC)c3)nc2c1 was read as BJeLR viability 0.2, Autofluor counter 3975, PrP 5UTR inh -4.9, RN4220 kill 1.3, Mtb hypoxia inh 4.7, ugtP null kill 4.4 and Mtb hypoxia inh growth -4.3.
For COC(=O)c1c(CSc2cccc(C)c2)noc1C(=O)NCc1ccco1 the results were BJeLR viability 4.6, Autofluor counter 3044, PrP 5UTR inh -30.3, RN4220 kill 1.5, Mtb hypoxia inh 9.9, ugtP null kill 3.2 and Mtb hypoxia inh growth 7.2.
Screening Cc1ccc(C(=O)O/N=C(\N)c2cccc([N+](=O)[O-])c2)cc1 returned BJeLR viability 0.5, Autofluor counter 19951* and PrP 5UTR inh -205.2.
CCN1CCN(CCCOc2ccc(Cl)cc2Br)CC1 was read as BJeLR viability -2.5, Autofluor counter 3654, PrP 5UTR inh -6.4, RN4220 kill 4.2, Mtb hypoxia inh 19.6, ugtP null kill 4.7 and Mtb hypoxia inh growth 16.8.
Cc1ccc(NC(=O)COC(=O)Cc2ccccc2)cc1S(=O)(=O)N1CCOCC1 was read as Autofluor counter 4723, PrP 5UTR inh -17.5, RN4220 kill 5.8, Mtb hypoxia inh -3.3, ugtP null kill 8.7 and Mtb hypoxia inh growth -2.6.
`CC(C)c1nnc(NC(=O)C2c3ccccc3Oc3ccccc32)s1` gave BJeLR viability -4.1, Autofluor counter 3072, PrP 5UTR inh -16.3, RN4220 kill 9.4, Mtb hypoxia inh -7.2, ugtP null kill -17.5 and Mtb hypoxia inh growth 7.5.
Screening O=C(OCC(=O)N1CCCCC1)c1cc(NS(=O)(=O)c2ccc(Cl)c([N+](=O)[O-])c2)ccc1O returned BJeLR viability 2.7, Autofluor counter 2598, PrP 5UTR inh -7.2, RN4220 kill -2.1, Mtb hypoxia inh -4.8, ugtP null kill 6.6 and Mtb hypoxia inh growth -6.6.
Screening COC(=O)c1sc(S(=O)(=O)NCc2ccccc2)c(C(=O)OC)c1C returned BJeLR viability 3.2, Autofluor counter 8127, PrP 5UTR inh -21.5, RN4220 kill 9.5, Mtb hypoxia inh 4.1, ugtP null kill 14.7 and Mtb hypoxia inh growth 2.8.
Screening COc1ccc(N(CC(=O)NN=Cc2cc(OC)ccc2OC)S(=O)(=O)c2ccccc2)cc1 returned RN4220 kill 0.9, Mtb hypoxia inh 2.2, ugtP null kill -2.1 and Mtb hypoxia inh growth -3.8.
`CCN(C(=O)COC(=O)COc1ccc2c(c1)CCC2)c1c(N)n(Cc2ccccc2)c(=O)[nH]c1=O` gave Autofluor counter 4707, PrP 5UTR inh -19.0, RN4220 kill 7.6, Mtb hypoxia inh 1.2, ugtP null kill 6.2 and Mtb hypoxia inh growth -0.5.
O=C(NCCCn1ccnc1)C1c2ccccc2Oc2ccccc21 was read as BJeLR viability -6.4, Autofluor counter inconclusive, PrP 5UTR inh -13.6, RN4220 kill 8.1, Mtb hypoxia inh 10.2, ugtP null kill 13.4 and Mtb hypoxia inh growth 11.8.
Screening CCN(CC)c1ccc(C=Nn2c(=S)[nH]nc(C)c2=O)cc1 returned RN4220 kill 8.0, Mtb hypoxia inh 3.5, ugtP null kill 2.7 and Mtb hypoxia inh growth 12.8.
